Screening results as filed in PubChem BioAssay.
DUX4 inh = DUX4-mediated transcription inhibition | 293T-iDUX4 ZSCAN4-Gaussia luciferase reporter, 24 h; hits give low values | activity change, negative = inhibition, % (concentration not given with the values) | 0.8% of 37,000 active | AID 1224904;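 active = -10% or lower and over 25 points stronger than a control reporter; inconclusive = -10% or lower with a smaller gap; inactive = above -10%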;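 note: 0% = median of neutral control wells and -100% = median of positive control wells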
DUX4 inh difference = further read-out of DUX4 inh, marked with its call; Gaussia minus Italica difference, %; measured here: selective DUX4 reporter inhibition;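 worked out from the two reporters; negative = selective loss of the DUX4 reporter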
DUX4 inh control = second read-out of DUX4 inh, no call of its own (marks repeat the call); activity change, negative = inhibition, %; measured here: Italica tet-on control reporter;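 0 = neutral control and -100 = positive control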
An asterisk follows results filed as active; ? = inconclusive; / = no result given; & = joins results of further samples; ! = a repeat was not active. This is a subset, so the mix of outcomes need not match the whole.

DUX4 inh	DUX4 inh difference	DUX4 inh control	SMILES
1.7	2.5	-0.8	O=C(CN1CCOCC1)N1[C@H](CO)[C@H]2c3ccccc3NC[C@H]21
4.0	2.1	2.0	O=C(Nc1ccc(F)cc1)N1CC(=O)N2[C@H](CO)[C@H](c3ccc(Br)cc3)[C@H]2C1
0.2	-0.9	1.1	Cc1ccccc1NC(=O)Nc1ccc2c(c1)C(=O)N(C)[C@H]1CC[C@H](CC(=O)NCC3CC3)O[C@H]1CO2
1.3	2.1	-0.8	CNC[C@H]1Oc2cc(C#Cc3ccccc3OC)ccc2S(=O)(=O)N([C@H](C)CO)C[C@@H]1C
4.1	5.0	-0.9	O=C(C[C@H]1CC[C@@H](NC(=O)c2cccnc2)[C@H](CO)O1)NCc1ccc(Cl)c(Cl)c1
3.7	0.9	2.8	O=C(CC1CC1)N1CC[C@@H]2[C@H]1c1cc(-c3ccc(F)cc3)ccc1N[C@@H]2CO
-1.5	0.9	-2.4	COCC(=O)NC[C@H]1[C@@H](c2ccccc2)[C@H](CO)N1C(C)=O
?	/	/	O=C(C[C@H]1C[C@H]2c3cc(NS(=O)(=O)c4ccc(F)cc4)ccc3O[C@H]2[C@H](CO)O1)NCc1cccc(F)c1
0.2	0.1	0.1	N#C[C@H]1[C@@H](c2ccccc2-c2ccccc2)[C@@H](CO)N1c1ncc(-c2ccccc2)s1
-2.6	1.2	-3.9	CCCC(=O)N1C[C@@H]2[C@H](c3ccccc31)[C@@H](CO)N2C(=O)Nc1ccc(F)cc1
8.5	7.0	1.5	CCCNC(=O)C[C@H]1CC[C@H]2[C@@H](COC[C@@H](O)CN2C(=O)C2CCOCC2)O1
-3.4	-2.3	-1.2	N#C[C@H]1[C@@H](c2ccc(C3=CCCC3)cc2)[C@H](CO)N1C(=O)C1CC1
1.1	-2.9	4.0	C[C@H]1CN([C@@H](C)CO)C(=O)CCCn2nncc2CO[C@H]1CN(C)C(=O)Cc1ccccc1
-1.0	-2.0	1.0	Cc1ccccc1CN(C)C[C@H]1OCc2cn(nn2)CCCC(=O)N([C@@H](C)CO)C[C@@H]1C
-4.9	-2.9	-2.0	CC=Cc1ccc2n(c1=O)C[C@H]1[C@H](CO)[C@@H](C(=O)OC)N(Cc3ccccc3)[C@@H]21 (mixture of isomers)
7.3	5.7	1.6	CN1CCN(C(=O)C[C@H]2C[C@@H]3c4cc(NC(=O)C5CCC5)ccc4O[C@@H]3[C@@H](CO)O2)CC1
-3.8	-1.5	-2.2	COc1ccc(C#Cc2ccc3c(c2)O[C@@H](CN(C)S(=O)(=O)c2ccccc2F)[C@H](C)CN([C@H](C)CO)S3(=O)=O)cc1
-43.4*!	-32.7*!	-10.7*!	CCCNC(=O)N1C[C@@H]2N[C@H](C1)C2c1ccc(-c2cccc(F)c2)cc1 (stereo partly drawn)
-0.5	-4.8	4.3	O=C1N[C@@H](c2ccccc2)COCc2cn(nn2)CC[C@H]1Cc1ccc(Cl)cc1
-1.8	3.1	-5.0	CC(C)c1cn(CC[C@H]2CC[C@H](NC(=O)Nc3cc(Cl)cc(Cl)c3)[C@@H](CO)O2)nn1
-5.4	-4.5	-0.9	COc1ccccc1C(=O)N1C[C@H]2[C@@H](c3ccccc31)[C@@H](CO)N2CC1CCOCC1
9.9	6.4	3.5	CN(C)C(=O)[C@@H]1[C@@H](CO)[C@@H]2Cn3c(ccc(C4=CCCCC4)c3=O)[C@H]1N2Cc1cccnc1
?	/	/	CC(C)[C@H](C)NC(=O)N(C)C[C@@H]1OCc2ccccc2-c2c(n(C)c3ccccc23)C(=O)N([C@@H](C)CO)C[C@@H]1C
?	/	/	COCC(=O)N1CC2(CN(Cc3ccccc3Cl)C2)c2c([nH]c3cc(OC)ccc23)[C@@H]1CO
2.5	-2.1	4.6	CCCNC(=O)NC[C@@H]1[C@@H](c2ccc(C3=CCCCC3)cc2)[C@@H](CO)N1C(C)=O

Three compounds already listed, arranged by count of non-hydrogen atoms, falling.
DUX4 inh	DUX4 inh difference	DUX4 inh control	SMILES
2.5	-2.1	4.6	CCCNC(=O)NC[C@@H]1[C@@H](c2ccc(C3=CCCCC3)cc2)[C@@H](CO)N1C(C)=O
3.7	0.9	2.8	O=C(CC1CC1)N1CC[C@@H]2[C@H]1c1cc(-c3ccc(F)cc3)ccc1N[C@@H]2CO
-1.5	0.9	-2.4	COCC(=O)NC[C@H]1[C@@H](c2ccccc2)[C@H](CO)N1C(C)=O

(further entries)
DUX4 inh	DUX4 inh difference	DUX4 inh control	SMILES
9.4	3.5	5.9	Cc1cccc(-c2ccc([C@H]3[C@H](CO)N4CCCCN(Cc5ccncc5)C[C@@H]34)cc2)c1
-1.9	2.1	-3.9	Cc1noc(C)c1NC(=O)Nc1ccc2c(c1)C(=O)N([C@H](C)CO)C[C@@H](C)[C@H](CN(C)S(=O)(=O)c1cn(C)cn1)OCCCC[C@H](C)O2
-2.1	0.5	-2.6	C[C@@H]1CN([C@H](C)CO)C(=O)c2cccc(NC(=O)NC3CCCCC3)c2O[C@H]1CN(C)Cc1ccc(C(F)(F)F)cc1
18.0	8.3	9.7	COc1ccccc1-c1ccc([C@@H]2[C@H](CO)N3CCCCN(S(=O)(=O)c4cn(C)cn4)C[C@@H]23)cc1
12.5	5.5	6.9	CN(C)CC(=O)N1[C@@H](C#N)[C@H](c2ccccc2-c2ccc(C(=O)N(C)C)cc2)[C@@H]1CO
3.9	2.4	1.5	C[C@@H]1CN([C@@H](C)CO)C(=O)c2ccccc2-c2ccccc2CO[C@@H]1CN(C)Cc1cccc(O)c1
-3.7	-1.7	-2.0	Cc1ccc(S(=O)(=O)N(C)C[C@@H]2Oc3c(NC(=O)Nc4cccc5ccccc45)cccc3C(=O)N([C@H](C)CO)C[C@@H]2C)cc1
5.5	4.3	1.2	CC(=O)N1[C@H](C(=O)N(C)C)[C@@H](CO)[C@@H]2Cn3c(ccc(-c4ccccc4)c3=O)[C@@H]21
-4.7	-7.8	3.1	CN(C)CC(=O)N[C@H]1C=C[C@@H](CC(=O)NCc2ccc(Cl)cc2)O[C@H]1CO
-3.6&-3.0	1.3&-2.6	-4.9&-0.4	NCC[C@H]1CC[C@@H](NS(=O)(=O)c2ccc(Cl)cc2)[C@@H](CO)O1
-2.2	5.0	-7.3	O=C(c1cccnc1)N1CCCCN2[C@H](CO)[C@@H](c3ccc(C#Cc4cccnc4)cc3)[C@@H]2C1
-1.2	-3.2	2.0	CN1C[C@H]2[C@@H](c3ccccc31)[C@H](CO)N2Cc1ccccc1Cl
-1.8	-3.9	2.1	COCC#Cc1ccc2c(c1)O[C@H](CN(C)Cc1ccc3c(c1)OCO3)[C@H](C)CN([C@H](C)CO)S2(=O)=O
1.1	-5.1	6.2	Cc1ccccc1-c1ccc([C@@H]2[C@@H](CO)N3C(=O)CN(C(=O)Cc4ccccn4)C[C@H]23)cc1
1.6	2.0	-0.4	CN1C(=O)c2cc(NC(=O)NCc3ccccc3)ccc2OC[C@@H]2O[C@H](CC(=O)NCC3CCCCC3)CC[C@@H]21
-3.1	-6.7	3.5	COc1ccccc1-c1ccc2c(c1)O[C@H](CN(C)C(=O)c1ccncc1)[C@@H](C)CN([C@@H](C)CO)S2(=O)=O
?	/	/	C[C@H]1CN([C@@H](C)CO)C(=O)c2c(c3ccccc3n2C)-c2ccccc2CO[C@H]1CN(C)C(=O)[C@H](Cc1ccccc1)N(C)C
?	/	/	O=C(c1ccc2c(c1)OCO2)N1CC(=O)N2[C@H](C1)[C@H](c1ccc(C#CCC3CCCC3)cc1)[C@@H]2CO
-1.5	-2.3	0.7	CC=Cc1ccc2n(c1=O)C[C@H]1[C@H](CO)[C@@H](C(=O)NCCc3ccncc3)N[C@@H]21 (mixture of isomers)
-9.2	4.8	-14.0	C/C=C/c1ccc([C@H]2[C@@H](CO)N3CCCCN(C(=O)Nc4ccc(OC)cc4)C[C@H]23)cc1
-0.1	-0.5	0.4	Cc1ccc(-c2ccc([C@H]3[C@@H](CO)N4C(=O)CN(C(=O)Nc5ccc(F)cc5)C[C@@H]34)cc2)cc1
7.9	4.3	3.6	CCC(=O)N1CC(=O)N2[C@@H](CO)[C@@H](c3ccc(-c4cccnc4)cc3)[C@@H]2C1
?	/	/	O=C(Nc1ccc(F)cc1)N1CC(=O)N2[C@H](CO)[C@H](c3ccc(-c4cccc(F)c4)cc3)[C@@H]2C1
4.6	4.7	-0.1	C[C@H](CO)N1C[C@H](C)[C@H](CN(C)S(=O)(=O)c2ccccc2C#N)OCc2cnnn2CCCC1=O
2.5	2.8	-0.3	CNC[C@H]1Oc2ccc(NC(=O)CCN3CCOCC3)cc2CC(=O)N([C@@H](C)CO)C[C@@H]1C
-0.6	-2.7	2.0	O=C(C[C@@H]1CC[C@@H](NC(=O)NC2CCCCC2)[C@@H](CO)O1)NCc1ccccc1
?	/	/	CN1CCN(C(=O)C[C@@H]2CC[C@@H]3[C@H](COC[C@H](O)CN3Cc3cccc(-c4ccncc4)c3)O2)CC1
2.2	2.5	-0.3	CC(C)NC(=O)N(C)C[C@H]1Oc2cc(C#Cc3ccccn3)ccc2S(=O)(=O)N([C@H](C)CO)C[C@H]1C
2.1	-0.7	2.7	COC(=O)c1ccc(CN2CC(=O)N3[C@H](C2)[C@H](c2ccc(-c4ccccc4F)cc2)[C@@H]3CO)cc1
-0.2	-0.4	0.2	CCCN1[C@H](CO)[C@H](c2ccc(C#CC3CCCCC3)cc2)[C@@H]1CNC(=O)C1CC1
-0.3	-0.9	0.6	CCCNC(=O)N1[C@H](CO)[C@H](c2ccc(-c3ccccc3)cc2)[C@H]1CNC(C)=O
5.0	1.3	3.7	CC(C)C(=O)Nc1ccc2c(c1)C(=O)N(C)[C@@H]1CC[C@H](CC(=O)NCc3ccc(F)cc3)O[C@@H]1CO2
-4.3	1.3	-5.6	O=C(C[C@H]1C=C[C@@H](NS(=O)(=O)c2ccc(F)cc2)[C@H](CO)O1)N1CCc2ccccc2C1
-1.4	5.8	-7.2	N#C[C@H]1[C@@H](c2ccccc2C2=CCCCC2)[C@@H](CO)N1C(=O)c1ccccn1
5.5	-2.3	7.8	COCC(=O)N1CC(=O)N2[C@H](CO)[C@@H](c3ccc(-c4ccccc4C)cc3)[C@H]2C1
-5.3	-2.9	-2.4	CCCN1C[C@H](C)[C@@H](OC)CN(C)C(=O)c2cc(NC(=O)c3ccccc3F)ccc2OC[C@H]1C
?	/	/	COc1ccc(-c2ccc3c(c2)[C@@H]2[C@@H](CCN2S(=O)(=O)c2ccccc2C)[C@@H](CO)N3)cc1
-1.5	-4.9	3.4	COCCNC(=O)C[C@@H]1CC[C@@H]2[C@H](COC[C@H](O)CN2Cc2ccc(Cl)c(Cl)c2)O1
1.9	-0.1	2.0	CO[C@H]1CN(C)C(=O)c2cc(NS(C)(=O)=O)ccc2OC[C@@H](C)N(CCC(F)(F)F)C[C@@H]1C
-0.8	-2.3	1.5	CCCC#Cc1ccc([C@@H]2[C@@H](CO)N(C(=O)C3CCCCC3)[C@H]2C#N)cc1
-0.6	-2.3	1.7	C/C=C/c1cnc2c(c1)C(=O)N([C@H](C)CO)C[C@H](C)[C@H](CN(C)C(=O)Nc1c(C)noc1C)O2
2.5	-1.3	3.8	C[C@H](CO)N1C[C@H](C)[C@H](CN(C)C(=O)C2CCCCC2)Oc2ncc(-c3cccnc3)cc2C1=O
-2.3	-3.3	1.0	O=C(NCCc1ccncc1)[C@@H]1[C@@H](CO)[C@@H]2Cn3c(ccc(-c4ccccc4)c3=O)[C@@H]2N1C(=O)C1CC1
?	/	/	COc1ccc2c3c([nH]c2c1)[C@@H](CO)N(C(=O)NC(C)C)CC31CN(Cc2ccc(F)cc2)C1
-1.6	-3.0	1.4	CC(C)(C)[S@@](=O)N1Cc2cc(C(=O)N[C@@H]3CCN(Cc4ccccc4)C3)nc(-c3cccc(-c4ccncc4)c3)c2[C@H]1CCO
-5.7	4.0	-9.6	O=C(C[C@@H]1CC[C@@H]2[C@H](COC[C@@H](O)CN2C(=O)c2ccccc2F)O1)NCc1ccc(Cl)c(Cl)c1
-1.3	3.2	-4.5	O=C(Nc1cccc(Cl)c1)N1C[C@H]2[C@@H](c3ccccc31)[C@H](CO)N2Cc1ccncc1
3.0	1.7	1.4	O=C(C[C@@H]1CC[C@@H]2[C@H](COC[C@@H](O)CN2S(=O)(=O)c2cccc(F)c2)O1)NCCCN1CCOCC1
-2.8	-1.3	-1.6	COc1ccccc1CN1[C@@H]2Cn3c(cccc3=O)[C@H]1[C@@H](C(=O)N1CCc3ccccc3C1)[C@@H]2CO
2.9	-1.4	4.3	CN1[C@@H]2Cn3c(ccc(C4=CCCC4)c3=O)[C@H]1[C@@H](C(=O)N1CCCCC1)[C@@H]2CO

Two compounds picked at random from those above:
DUX4 inh	DUX4 inh difference	DUX4 inh control	SMILES
-1.5	-2.3	0.7	CC=Cc1ccc2n(c1=O)C[C@H]1[C@H](CO)[C@@H](C(=O)NCCc3ccncc3)N[C@@H]21 (mixture of isomers)
-2.6	1.2	-3.9	CCCC(=O)N1C[C@@H]2[C@H](c3ccccc31)[C@@H](CO)N2C(=O)Nc1ccc(F)cc1

Next results follow.
DUX4 inh	DUX4 inh difference	DUX4 inh control	SMILES
-1.3	-0.3	-1.0	CC=Cc1ccc2n(c1=O)C[C@@H]1[C@@H](CO)[C@H](C(=O)NCC)[C@H]2N1C(=O)c1ccc(F)cc1 (mixture of isomers)
2.4	1.8	0.6	COCCNC(=O)C[C@H]1CC[C@H]2[C@@H](COc3ccc(NC(=O)c4ccno4)cc3C(=O)N2C)O1
-2.1	-6.7	4.5	Cc1noc(C)c1NC(=O)N[C@@H]1CC[C@H](CC(=O)N2CCN(C)CC2)O[C@@H]1CO
3.4	0.5	3.0	O=C(C[C@H]1CC[C@H]2NC[C@H](O)COC[C@@H]2O1)NCCN1CCCCC1
12.6	3.9	8.7	COCCNC(=O)C[C@@H]1C[C@H]2c3cc(NC(=O)Nc4ccccc4F)ccc3O[C@H]2[C@@H](CO)O1
